Compound activity as filed in PubChem BioAssay.
VDR inh = Inhibitors of the vitamin D receptor (VDR): qHTS | Potency, µM, for the others: max response, negative = inhibition, actives largely listed as inhibitors | hit rate 0.93% among 400,000 | VDR-SRC2-3 peptide fluorescence polarization, 2 h | AID 504847, 2011 | Vitamin D3 receptor (Homo sapiens), P11473; active = well fitted inhibition curve with a large enough effect; inconclusive = small, poorly fitted or top-dose-only effect, or another doubt; inactive = no such curve, though single readings can be large or run the other way; note: series mostly up to about 120 µM
Target sequence (P11473 whole entry, looked up): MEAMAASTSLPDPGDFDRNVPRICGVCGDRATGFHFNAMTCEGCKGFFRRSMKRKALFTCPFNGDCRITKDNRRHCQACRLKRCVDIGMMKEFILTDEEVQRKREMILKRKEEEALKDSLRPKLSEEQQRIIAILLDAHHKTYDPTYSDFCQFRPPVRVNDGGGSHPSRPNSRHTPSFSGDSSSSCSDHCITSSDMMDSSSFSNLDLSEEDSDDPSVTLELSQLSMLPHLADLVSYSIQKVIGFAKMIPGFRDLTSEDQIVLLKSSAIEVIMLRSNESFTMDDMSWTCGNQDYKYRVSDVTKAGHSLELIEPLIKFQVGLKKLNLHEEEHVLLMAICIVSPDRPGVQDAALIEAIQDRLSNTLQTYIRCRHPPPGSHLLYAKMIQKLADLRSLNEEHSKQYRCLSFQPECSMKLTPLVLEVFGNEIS
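Compounds are added to VDR with labelled SRC2-3 coactivator peptide and held 2 h at room temperature. Inhibition of the VDR–peptide interaction is then read as a change in fluorescence polarization.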
Numbers without * were called inactive; u = inconclusive. % is set by controls: 0 for no effect and ±100 for the full control effect; potency is the fitted concentration of half-maximal effect. Only part of the results is shown; rates above refer to the full screens.

SMILES | VDR inh
Cc1ccccc1OCC(=O)Nc1cccc(NC(=O)c2ccco2)c1 | -7%
CCc1n[nH]c(=S)n1/N=C/c1ccc(N(C)c2ccccc2)cc1 | -22%
O=C(CN1CCN(c2ccc(O)cc2)CC1)Nc1ccc(SC(F)F)cc1 | 5%
C=CCOC(=O)C1=C(C)NC(=S)C(C#N)(CC=C)C1c1ccccc1Cl (configuration not stated) | -7%
CCOC(=O)Cc1csc(NC(=O)c2c(C)noc2C)n1 | 13%
O=C(NCCN=C1NS(=O)(=O)c2ccccc21)c1ccc2nccnc2c1 | 22%
COC(=O)C1=C(C)NC(=S)NC1c1ccc(-c2cc(Cl)ccc2Cl)o1 (configuration not stated) | u
O=C(COC(=O)Cc1cccs1)NCc1ccc(F)cc1 | -8%
COc1nn(-c2nc(-c3ccccc3)cc(C(F)(F)F)n2)cc1[N+](=O)[O-] | -10%
COc1ccc(CN(C)C(=O)c2ccccc2OCc2c(C)noc2C)cc1OC | -7%
CC1(C)CC(=O)C(CC2=C(O)CC(C)(C)CC2=O)=C(O)C1 | -17%
CN(C)c1ccc(CNC(=O)Cc2ccc(NC(=O)N3CCCCc4ccccc43)cc2)cc1 | 16%
O=C(c1ccc(F)cc1F)N1CCC(c2nc(-c3ccc(S(=O)(=O)N4CCCC4)cc3)no2)CC1 | 14%
CC(C)(C)c1ccc(O)c(N=Cc2cc(Br)ccc2O)c1 | -5%
CSc1nc2cc(S(=O)(=O)N3CCCCC3)ccc2s1 | 10%
Cc1[nH]nc(N)c1-c1ccccc1 | -29%
O=C(CSc1nccc(=O)[nH]1)N1CCc2ccccc2C1 | 18%
Cc1csc(B(O)O)c1 | -22%
CCOC(=O)C(C)Oc1nc(Oc2ccccc2)nc(N(C)C)n1 (configuration not stated) | -3%
CN(C)N1C(N)=C(C#N)C(c2cccc(Cl)c2)C2=C1CCCC2=O (configuration not stated) | -20%
COC(CNC(=O)CCc1c(C)nc2c(c(C)nn2-c2ccc(C)cc2)c1C)OC | 7%
COc1cccc(OCC(=O)NNC(=O)C(=O)Nc2ccc(OC)cc2OC)c1 | 12%
CCN(CC(=O)Nc1ccc2c(c1)OCO2)S(=O)(=O)c1ccccc1 | 3%
O=C(NCc1ccccn1)c1ccc([N+](=O)[O-])cc1 | 0%
CCOC(=O)c1c(NC(=O)/C=C/c2ccc(OC)cc2)sc2c1CCC(C)C2 (configuration not stated) | -9%
Cc1ccc(C2Oc3ccccc3C3=C2C(c2cccs2)n2ncnc2N3)cc1 (configuration not stated) | -7%
COc1ccc(OCc2cc(C(=O)NC(C)c3csc(C)n3)no2)c(Cl)c1 (configuration not stated) | 7%
c1cncc(-c2nc(NCCCn3ccnc3)c3ccccc3n2)c1 | 7%
Cc1cc(C(=O)Nc2cccc(S(=O)(=O)N3CCCCC3)c2)c2ccccc2n1 | 0%
CC1CCc2sc(C(=O)OCC(=O)NC(N)=O)cc2C1 (configuration not stated) | -1%
O=C(CC1C(=O)NCCN1Cc1cccc(F)c1F)NC1CCCCCC1 (configuration not stated) | -29%
Cc1cc(NC(=O)C(C)SCC(=O)N(C)CC(=O)Nc2ccccc2Br)no1 (configuration not stated) | 3%
O=C(CC1NC(=S)NC1=O)c1ccc(Cl)cc1 (configuration not stated) | 4%
CC(=O)c1ccc(N2CCN(C(=O)c3cc4c(s3)-c3ccccc3OC4)CC2)cc1 | 10%
COc1cc(-c2nc3ccccc3s2)ccc1O | 17%
O=C1OC2(c3ccccc3)C3CCCC2C13 | 15%
COc1cc(C(=O)C(=O)c2cc(OC)c(O)c(OC)c2)cc(OC)c1O | -24%
Cc1cc2nn(-c3ccc(F)cc3)nc2cc1NC(=O)c1cccc2c(Cl)cccc12 | -17%
CCCC(=O)Nc1cc(OCC)c(NC(=O)NC2CCCCC2)cc1OCC | 7%
Cc1cc(C(F)F)nn1CC(=O)NCc1ccco1 | -2%

A portion of the results above, for reference:
SMILES | VDR inh
COC(CNC(=O)CCc1c(C)nc2c(c(C)nn2-c2ccc(C)cc2)c1C)OC | 7%
COc1cccc(OCC(=O)NNC(=O)C(=O)Nc2ccc(OC)cc2OC)c1 | 12%

Additional compounds:
SMILES | VDR inh
CCCS(=O)(=O)c1ncc(Cl)c(C(=O)Nc2ccc(S(=O)(=O)Nc3ncccn3)cc2)n1 | 22µM*
O=C(COC(=O)c1cccc(Cl)c1)Nc1cccc(S(=O)(=O)NC2=NCCC2)c1 | 6%
COc1ccc2nc(SCC(=O)N(C)C3CCCCC3)c(C#N)cc2c1 | 3%
Cc1cccn2c(=O)c(/C=N/O)c(Nc3ccccc3F)nc12 | -1%
CCCC(=O)NC(=S)Nc1cccc(C(C)=O)c1 | 7%
COc1c(/C=N/NS(=O)(=O)c2ccc(C)cc2)c(CCN(C)C(C)=O)cc2c1OCO2 | -9%
Cc1cc(C(=O)CSc2nnnn2C)c(C)n1-c1ccc2c(c1)OCCO2 | -9%
CC1=C(C(=O)Nc2cccnc2)C(c2ccc(C)cc2)n2nc(SCc3ccccc3F)nc2N1 (configuration not stated) | -23%
C[C@@H](C(=O)O)c1ccc(C(=O)c2ccccc2)s1 | 1%
CC1(C)CCC[C@]2(C)C(CS(=O)c3ccccc3)=C(C=O)CC[C@@H]12 (some centres not stated) | 12%
CCOC(=O)N1CCN(C(=O)c2ccc(CN(c3ccccc3)S(C)(=O)=O)cc2)CC1 | -2%
O=C(Oc1cccc(C(=S)N2CCOCC2)c1)c1cccc(Cl)c1 | -8%
CCN(CC)c1ccc(NC(=O)c2cc(CN3CCCC3)on2)c(C)c1 | 1%
Cc1ccc(-n2c(=O)c3cc4c(=O)n(-c5ccc(C)c(C)c5)c(=O)c4c(C(=O)c4ccc(C(=O)O)cc4)c3c2=O)cc1C | u
CC(=O)N1c2ccc(S(=O)(=O)N3CCCC3C(=O)Nc3cccc(F)c3)cc2CC1C (configuration not stated) | 9%
COc1ccc(CNC(=O)C(OC(=O)c2ccco2)c2ccc(F)cc2)cc1 (configuration not stated) | -5%
CCN(CC(=O)Nc1ccc(OC)cc1)C(=O)c1cc(-c2cccs2)nn1-c1ccccc1 | -19%
CC(C)C(NC(=O)c1ccc([N+](=O)[O-])cc1Cl)C(=O)N1CCCC1 (configuration not stated) | 12%
CCOC(=O)C(C#N)C(c1cccnc1)c1c(C)[nH][nH]c1=O (configuration not stated) | -12%
CCOC(=O)N1CCN(c2c(-c3ccc(C)c(C)c3)c(=O)c2=O)CC1 | 6%
COc1cccc(Nc2ncc3nc(-c4ccccc4)c(=O)n(C[C@H]4CCCO4)c3n2)c1 | 1%
Cc1cc(NC(=O)c2c(Cl)cccc2Cl)no1 | 1%
CCOC(=O)N(C)OC(=O)Nc1ccc(Cl)c(Cl)c1 | -90%
CN(C)c1ncc2nc(-c3ccc(Cl)cc3)c(=O)n(-c3ccccc3)c2n1 | 1%
COc1cccc(CNc2ccc([N+](=O)[O-])cc2Cl)c1O | 7%
Nc1nc2n(n1)C(c1cccc(Br)c1)CC(c1ccc(F)cc1)N2 (configuration not stated) | -6%
Cc1cc(C)c(OCCCCn2cnc3ccccc3c2=O)c(C)c1 | -2%
Cc1ccc(-c2nc3ccccc3c(=O)n2CCN2CCOCC2)cc1 | 1%
Cc1cc(=O)[nH]c(N/N=C/c2c(O)n(-c3ccccc3)c(=O)c3ccccc23)n1 | -4%
CCCNCc1cc(OC)c(OCCC)cc1Cl | -7%
CCOC(=O)c1c(-c2ccc(C)cc2)csc1NC1=NS(=O)(=O)c2ccccc21 | 8%
O=C(NC1CCCC1)c1cccc(Cl)c1 | 13%
COC(=O)c1cc(S(=O)(=O)NCc2ccc(Br)cc2)c[nH]1 | 1%
Cc1ccc(S(=O)(=O)Nc2cc(C(C(=O)OC(C)C)C(=O)C(F)(F)F)c(O)c3ccccc23)c(C)c1 (configuration not stated) | -6%
CC(=O)N1CC(C)Oc2ccc(S(=O)(=O)Nc3ccc(Cl)cn3)cc21 (configuration not stated) | -12%
O=C(COC(=O)c1ccccc1Nc1ccccc1)NCc1ccccc1 | 20%
COc1ccc(C(=O)NCCc2ccc(F)cc2)cc1OC | -6%
O=C(O)CC1CCS(=O)(=O)C1 (configuration not stated) | 1%
COc1ccc(C(=O)Nc2cccc(-c3csc(C)n3)c2)cc1S(=O)(=O)N1CCCC1 | 2%
Cc1noc(C)c1C(=O)N1CC(C)OC(C)C1 (configuration not stated) | -21%

Part of the list above in a different format:
molecule	VDR inh
COc1ccc(C(=O)NCCc2ccc(F)cc2)cc1OC	-6%
O=C(O)CC1CCS(=O)(=O)C1 (configuration not stated)	1%
COc1ccc(C(=O)Nc2cccc(-c3csc(C)n3)c2)cc1S(=O)(=O)N1CCCC1	2%

Following part
SMILES | VDR inh
O=C(NCc1ccc2c(c1)OCO2)c1ccc2c(c1)N(Cc1cccc(Cl)c1)C(=O)c1ccccc1S2 | 1%
COc1ccccc1CN(Cc1nc2ccccc2c(=O)[nH]1)C(=O)Nc1cccc(C)c1 | 12%
O=C(NCc1ccc(Cl)cc1)c1ccccc1CCc1ccccc1 | 6%
COc1cc(NC(=O)CNC(c2ccccc2)c2ccccc2)cc(OC)c1OC | -19%
CNC(=O)NC(=O)C(C)OC(=O)CCCc1nc2ccccc2s1 (configuration not stated) | 4%
C/C(Cc1ccccc1)=N\NC(=O)CNC(=O)c1ccc(F)cc1 | -2%
CO/N=C/c1ccc(N2CCN(C(=O)c3ccc(F)cc3)CC2)c([N+](=O)[O-])c1 | 4%
COc1ccccc1S(=O)(=O)Cc1ccc(C(=O)NCC2CCCO2)o1 (configuration not stated) | -20%
CN(C)S(=O)(=O)c1ccc2c(c1)nc(CCC(=O)Nc1ccc3c(c1)OCO3)n2C | -23%
CCc1ccc(NC(=O)c2ccc3c(O)c(S(=O)(=O)c4ccc(Cl)cc4)c(=O)[nH]c3c2)cc1 | 0%
COc1ccc2c(c1)C(=C(C#N)C#N)C(=O)N2CCc1ccccc1 | 50µM*
CCC(C)(C)NC(=O)CN(Cc1cccs1)C(=O)CNS(=O)(=O)c1ccc(F)cc1 | 6%
CCOc1ccc(C(=O)c2cc([N+](=O)[O-])ccc2N2CCOCC2)cc1 | u
COc1ccc(-c2noc(-c3ccc(C)cc3)n2)cc1 | -4%
CC[C@]12c3[nH]c4ccccc4c3CCN1C(=O)C(CC(=O)NCCN1CCOCC1)C[C@@H]2C(=O)N1CCN(C(=O)C2CC2)CC1 (some centres not stated) | 7%
O=C(O)c1ccccc1OCCOc1ccccc1C(=O)O | -8%
O=C(C1CCN(S(=O)(=O)c2ccc(Cl)cc2)CC1)N1CCOCC1 | 7%
Cc1ccc(CN2CCC(Oc3cccc(C(=O)NCc4cccnc4)c3)CC2)o1 | 2%
COc1ccc(/C(C)=N/N2CCOCC2)c(O)c1 | -13%
O=C(c1ccc(N2C(=O)CCC2=O)cc1)N1CCN(c2ccccc2)CC1 | 8%

A different layout for part of the listing above.
smiles	VDR inh
CO/N=C/c1ccc(N2CCN(C(=O)c3ccc(F)cc3)CC2)c([N+](=O)[O-])c1	4%
C/C(Cc1ccccc1)=N\NC(=O)CNC(=O)c1ccc(F)cc1	-2%
CCC(C)(C)NC(=O)CN(Cc1cccs1)C(=O)CNS(=O)(=O)c1ccc(F)cc1	6%
CC[C@]12c3[nH]c4ccccc4c3CCN1C(=O)C(CC(=O)NCCN1CCOCC1)C[C@@H]2C(=O)N1CCN(C(=O)C2CC2)CC1 (some centres not stated)	7%

(cont.)
SMILES | VDR inh
O=C(OCc1ccccc1Cl)c1ccc(-c2nnn(Cc3ccccc3Cl)n2)cc1 | -4%
CSc1ncc(C(=O)Nc2cccc(Cl)c2C)c(C)n1 | 3%
Cc1ccc(NC(=O)CN(C)C(=O)c2ccc(Sc3nncn3C)c([N+](=O)[O-])c2)cc1 | -26%
COC(=O)Cc1cc(OC)c(OC)cc1S(=O)(=O)N(C)C | 6%
Cc1ccc(S(=O)(=O)c2cn(C)c3cc(N4CCCCC4)c(F)cc3c2=O)cc1 | 13%
O=C(O)CCN1Cc2ccccc2C1=O | 25%
COc1ccc(NC(=O)CCN2CCN(S(=O)(=O)c3cc(Cl)ccc3OC)CC2)cc1 | -12%
Cc1ccc(C)c(CSc2nc(-c3ccccc3F)nc3c2Cc2c(CO)cnc(C)c2O3)c1 | 17%
COc1ccc(OC)c(S(=O)(=O)NC(C)CCc2ccccc2)c1 (configuration not stated) | 3%
O=C(OCc1ccccc1Cl)c1cc([N+](=O)[O-])ccc1N1CCOCC1 | -8%
COc1ccccc1CN(Cc1c(Cl)cccc1Cl)S(=O)(=O)c1ccc(Br)cc1 | 7%
CCOc1ccc(S(=O)(=O)NCc2ccc(Cl)cc2)c2cccnc12 | -15%
CCCCC(=O)Nc1ccccc1N1CCN(c2ccccc2)CC1 | 8%
Cc1nn(C)cc1/C=N/O | 6%
Cc1nn(C)cc1/C=N/NC(=O)c1ccc2c(c1)OCO2 | -1%
CCOc1cc(CN2CCN(c3cccc(C(F)(F)F)c3)CC2)ccc1OC | -1%
CN1CCN(c2ccccc2/C=N/NC(=O)c2cccnc2)CC1 | -15%
COc1ccc(NC(=S)Nc2ccc(S(N)(=O)=O)cc2)c(OC)c1 | -6%
O=C(Nc1ccc(S(=O)(=O)Nc2ncccn2)cc1)c1ccccc1 | 10%
Cc1ccc(C(=O)NC2CCN(CC(=O)NCc3cccs3)CC2)cc1 | -2%

Gathered by group: the entries above with a COOH group
SMILES | VDR inh
C[C@@H](C(=O)O)c1ccc(C(=O)c2ccccc2)s1 | 1%
Cc1ccc(-n2c(=O)c3cc4c(=O)n(-c5ccc(C)c(C)c5)c(=O)c4c(C(=O)c4ccc(C(=O)O)cc4)c3c2=O)cc1C | u
O=C(O)CC1CCS(=O)(=O)C1 (configuration not stated) | 1%
O=C(O)c1ccccc1OCCOc1ccccc1C(=O)O | -8%
O=C(O)CCN1Cc2ccccc2C1=O | 25%
